Compound activity as filed in PubChem BioAssay.
Mtb growth: Confirmatory growth inhibition assay against Mycobacterium tuberculosis H37Rv, potency (AID 1949) | 100,000 compounds, 1.6% hits | inhibition, % at 10 µg/mL; hits with a dose series show IC50 in µg/mL | most inactive calls were filed without a number and no value below 0 was filed;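 active = confirmed in a dose series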;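 note: bacteria grown 7 days with compound before Alamar blue readout; 0% = untreated bacteria and 100% = reference antibiotic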
Calls only; i = inactive. A portion of the library; rates above refer to the full screens.

| entry | Compound | Mtb growth |
| --- | --- | --- |
| 1 | O=C(NCCc1c[nH]c2ccccc12)c1cccnc1 | i |
| 2 | CC(=O)C1=C(C)NC(=S)NC1c1cc(Br)ccc1OCC(=O)O (stereo not drawn) | i |
| 3 | COc1cc(C(=O)NC(=S)Nc2cccc(NC(=O)c3ccccc3)c2)cc(OC)c1OC | i |
| 4 | O=C(O)c1cccnc1Nc1cccc(C(F)(F)F)c1 (tested in a mixture with another compound) | i |
| 5 | O=C(Nc1cccc(O)c1)c1cccc(NC(=O)c2ccccc2-c2ccccc2C(=O)O)c1 | i |
| 6 | CCOc1ccc(NC(=O)Cn2cc(C(=O)c3ccco3)c3ccccc32)cc1 | i |

Sorted by molecular weight (lowest first): some entries from above
| entry | Compound | Mtb growth |
| --- | --- | --- |
| 1 | O=C(NCCc1c[nH]c2ccccc12)c1cccnc1 | i |
| 2 | CC(=O)C1=C(C)NC(=S)NC1c1cc(Br)ccc1OCC(=O)O (stereo not drawn) | i |
| 3 | COc1cc(C(=O)NC(=S)Nc2cccc(NC(=O)c3ccccc3)c2)cc(OC)c1OC | i |
